# Compound activity deposited in PubChem by ICCB-Longwood Screening Facility, Harvard Medical School.
# Sa growth 42C: S. aureus growth inhibition at 42 and 30 °C, primary screen, LtaS inhibitor project, RN4220, two temperatures; relative growth, % (test concentration not listed); AID 720641, 2013; 0.53% of 170,000 active; OD600, 20 h, 42 °C; active compounds read low;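 active means growth at 42 °C up to 50% and 20 or more points under that at 30 °C, or under 10% at both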;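 further: 300 nL library stock went into each well; scaled to the means of positive and negative controls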
# GIV Gai3 FP: inhibitors of GIV peptide binding to Galpha-i3, primary screen, biochemical, fluorescence polarization, FITC-GIV GBA peptide, rat Galphai3 | AID 1224905, 2016 | 90 min; active compounds read low; scaled: aluminum fluoride 0%, vehicle 100% | 0.42% of 210,000 active | percent of control (FP), % (concentration not given with the values) | Guanine nucleotide-binding protein G(i) subunit alpha-3 (Rattus norvegicus), P08753;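 active means replicate mean at 85% of control or lower, very high polarization wells dropped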;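 further: wells of about 15 µL received 100 nL stock; the first replicate is given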
# Target sequence (P08753 whole entry, looked up): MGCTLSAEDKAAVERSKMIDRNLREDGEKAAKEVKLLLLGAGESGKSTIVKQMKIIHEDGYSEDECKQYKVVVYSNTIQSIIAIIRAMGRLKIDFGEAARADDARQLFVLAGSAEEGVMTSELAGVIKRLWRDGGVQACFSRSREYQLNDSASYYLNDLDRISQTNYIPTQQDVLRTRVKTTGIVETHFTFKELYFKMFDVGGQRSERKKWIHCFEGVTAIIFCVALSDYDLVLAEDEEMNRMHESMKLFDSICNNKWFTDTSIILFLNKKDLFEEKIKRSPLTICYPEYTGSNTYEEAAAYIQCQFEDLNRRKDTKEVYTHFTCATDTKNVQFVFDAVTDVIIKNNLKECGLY
# HCMV UL50-53 inh: inhibitors of HCMV UL50-UL53 interaction, biochemical, HTRF; HCMV UL50-UL53 nuclear egress complex (human cytomegalovirus); normalized percent inhibition; inhibition, % (no concentration beside the values); 0.15% of 190,000 active; AID 1918969, 2023;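 active means both replicates at 50% or more, plus weaker picks with an unusually low signal ratio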;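 further: stock transfer was 100 nL into about 20 µL; 0% = negative control wells and 100% = wells with untagged competitor protein; inactives centre near -12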
# Sa growth 42C second temp: also measured in Sa growth 42C; calls as there; relative growth, %; measured here: growth at 30 °C;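 optical density after 20 h as mean of two plates; 100% = untreated growth and lower means inhibition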
# The depositor's hits bear a star; · = no result given; & = joins results of further samples.
SMILES,Sa growth 42C,Sa growth 42C second temp,GIV Gai3 FP,HCMV UL50-53 inh
CCc1ccc2[nH]c(=O)c(CN(CCCO)C(=O)Nc3ccccc3)cc2c1,94,87,107,-32
O=C(c1ccccc1)N(Cc1ccccc1)c1ccccn1,102,89,95,·
CSC1=C(C#N)C(=O)NC(c2ccccc2O)S1 (stereo not given),76,71,98,-7
Cc1c(-c2ccccc2)sc2ncnc(Sc3nnc(C4CC4)o3)c12,99,95,·,-8
COc1cccc2c1ncc1c(-c3ccc(C)cc3)nn(-c3cccc([N+](=O)[O-])c3)c12,83,89,99,·
Nc1cc(SC(F)(F)C(F)(F)C(F)(F)F)cc2c1OCC(=O)N2,106,95,·,-21
CCc1ccc(S(=O)(=O)n2ccnc2)cc1,93,86,106&106,-11
COc1cccc(-n2cc(C(=O)NCc3ccc(C)cc3)c3ccccc3c2=O)c1,99,114,100,·
CCc1ccc(NC(=O)CN2C(C(=O)OC)=C(c3ccccc3)c3ccccc3S2(=O)=O)cc1,100,95,105&106,16&-9
Cc1ccccc1OCc1ccc(-c2nc(C#N)c(N3CCN(C)CC3)o2)o1,100,65,105,-20
O=C(NCc1cccnc1)c1c[nH]c2cc3c(cc2c1=O)OCCO3,92,80,100,-9
COc1cc(Nc2c3c(nc4nc(C)nn24)CCC3)cc(OC)c1,·,·,104,11
CCOc1ccc(CN2C(=O)c3ccccc3Sc3ccc(C(=O)NCc4ccco4)cc32)cc1,106,79,104,-20
CCOC(=O)c1oc2ccc(S(=O)(=O)n3nc(-c4ccc(C(C)(C)C)cc4)cc3N)cc2c1C,·,·,103,-24
CC1CCN(c2nc3c(c(=O)n(Cc4ccccc4F)c(=O)n3C)n2C)CC1,·,·,106,8
CCCCN1CC(=O)N(c2ccc(OCC)cc2)[C@@H]2CS(=O)(=O)C[C@@H]21,·,·,104,-20
Cc1ccc(N2CC(C(=O)Nc3c(C)cccc3C)CC2=O)cc1 (stereo not given),119,89,·,2
CCOc1nc(-c2ccccc2)ccc1-c1noc(COc2ccccc2)n1,·,·,104,-4
Cc1sc(-c2ccc(-c3csnn3)cc2)nc1-c1ccccc1,86,92,97,-34
CCOC(=O)c1sc2ncnc(OCC)c2c1C,92,90,109,-19
COC(=O)c1ccc(COC(=O)c2ccc(C)cc2C)cc1,103,91,·,-24
COc1cc2c(cc1OC)C(COc1ccc3c(C)cc(=O)oc3c1)N(C(=O)c1cccc(C)c1)CC2 (stereo not given),101,97,103,-10
Clc1ccc(-c2noc3ncnc(NCCN4CCOCC4)c23)cc1,94,87,101&96,-10&-41
COc1cc(-c2noc(-c3ccccc3)n2)ccc1OCC(=O)Nc1ccccc1C,·,·,101,-32
CN1CCN(c2ccccc2NC(=O)C(Cc2ccccc2)n2cccc2)CC1 (stereo not given),120,90,107,·
# (continued)
SMILES,Sa growth 42C,Sa growth 42C second temp,GIV Gai3 FP,HCMV UL50-53 inh
CCc1ccccc1NC(=O)c1ccc(CN2C(=O)CCn3nc(C)cc32)cc1,112,85,106,·
O=C(OC1CCCCC1=O)c1cc(=O)c2ccccc2o1 (stereo not given),97,92,·,2
Cc1cccc(NC(=O)C2CCN(S(=O)(=O)c3c(C)noc3/C=C/c3ccco3)CC2)c1C,108,93,105,-28
Cc1ccc(C(=O)Nc2nccs2)cc1I,135,80,112,7
Nc1ccc(OC(F)(F)F)cc1,86,84,·,-15
CN(C)c1nc(C(N)=O)nc(N2CCOCC2)n1,104,90,113,-8
CC(=O)N(C)/C=C1\Sc2ccccc2C1=O,·,·,110,-27
Cc1nn(-c2ccc(F)cc2)c(C)c1S(=O)(=O)NCC1CCCO1 (stereo not given),·,·,109,-23
CCOC(=O)c1ccc(N2C(=O)C(Oc3ccccc3)C2c2ccc(OCC)cc2)cc1 (stereo not given),90,88,·,-17
c1ccc(CNc2nc3ccccc3n3cnnc23)cc1,·,·,105,-10
COc1cc(C(=O)CN2C(=O)c3ccccc3C2=O)c(OC)cc1Br,105,84,·,3
CCOC(=O)c1c(C)[nH]c(C(=O)c2cc3cc(Br)ccc3o2)c1C,88,97,·,11
CC1CCc2c(sc3nnn(CC(=O)Nc4ccc(Cl)cc4)c(=O)c23)C1 (stereo not given),118,91,100,·
COc1ccc(NC(=O)CN2C(=O)CCc3cc(S(=O)(=O)N4CCCC4)ccc32)cc1OC,·,·,109,-6
Cc1cc(C)c(CSCCn2c(C)ccc2C)c(C)c1,107,99,115,-20
COc1ccc2nc(N(Cc3cccnc3)C(=O)Cc3ccccc3)sc2c1,84,88,112,·
Cc1cc(-c2nn3c(-c4ccc(F)cc4)nnc3s2)no1,·,·,102,0
CCOC(=O)n1c(=S)oc2ccccc21,88,87,108,·
COCCN1C(=O)CC(Sc2ncccc2C(=O)O)C1=O (stereo not given),100,113,111,6
O=C(Cc1ccccc1)NC1CCN(C(=O)c2ccco2)CC1,95,83,96,-49
Cc1ccc(NC(=O)n2ncc3c(C)cccc32)c(C)c1,110,93,102,-18
Cc1onc(-c2c(Cl)cccc2Cl)c1NC(=O)N(C)N,96,86,104,-23
CCCCN(C)C(=O)C1CCC(Cn2c(=O)c3sccc3n(CC(=O)N(CC)CC)c2=O)CC1 (stereo not given),·,·,107,-1
S=C(NCc1ccccc1)N1CCn2c(nc3ccccc32)C1,91,75,103,·
CNc1nnc(-c2ccccc2)c2ccccc12,67,73,·,-49
# The list goes on.
SMILES,Sa growth 42C,Sa growth 42C second temp,GIV Gai3 FP,HCMV UL50-53 inh
O=C1COc2ccc(S(=O)(=O)N3CCN(C(=O)C4CC(=O)N(c5ccccc5)C4)CC3)cc2N1 (stereo not given),·,·,111,-38
CS(=O)(=O)Nc1nc2ccc(Cl)cc2s1,108,60,103,2
CCOc1ccc(C(=O)OCC(=O)NC2CCCCC2C)cc1 (stereo not given),118,95,·,6
COc1ccc2[nH]c3c(c2c1)CCN(C(=O)c1ccccc1OC)C3c1ccc(F)cc1 (stereo not given),·,·,98,-18
COc1ccc2cc3n(c2c1)CC(C)(C(=O)NC1CCCCC1)N(CC1CCCO1)C3=O (stereo not given),·,·,101,6
COc1ccc(N(C=O)C(=S)SC)cc1,100,95,·,-32
Cc1cc(C)c2c(CC(=O)Nc3cccnc3)coc2c1,·,·,110,-25
COc1ccc(CCNc2nc(N3CCCC3)nc(N3CCCC3)n2)cc1OC,96,99,109,6
CC(C)(C)c1nnc(-c2ccc(Oc3cc(Cl)cc(Cl)c3)o2)o1,90,85,102,·
Cc1noc(C)c1CSc1ncccc1C(=O)N(C)CCOc1ccc(Br)cc1,98,75,·,9
COc1ccc(CCNC(=O)CCn2c(=O)c3cccn3c3ccc(F)cc32)cc1OC,81,59,112,2
O=c1oc2ccc3ccccc3c2c2c1SC(C(F)(F)F)C2 (stereo not given),93,95,98,·
Cc1ccccc1NC(=O)CSc1nc2scc(C)c2c(=O)[nH]1,94,89,105,·
O=C(Nc1ccc2c(c1)OCO2)c1cccc(Nc2ccnc(-c3cccc(F)c3)n2)c1,·,·,105,-22
CN(C(=O)Cn1ncc2c1-c1ccccc1OC2)c1ccc(Br)cc1,101,81,103,-28
CC1=C(C(=O)OC2CCCCCC2)C(c2c(Cl)cccc2Cl)CC(=O)N1 (stereo not given),107,94,109,-6
CCCn1c(SCC(=O)N(C(C)C)C(C)C)nnc1-c1cccnc1,108,100,103,-22
CN1CCN(CCNC(=O)c2nc(-c3cccnc3)no2)CC1,100,83,98,·
CCN1CCN(C(=S)NC)CC1,124,105,104,-6
Cc1ccc(Cn2c(=O)c3ccccc3n3c(=O)n(CC(=O)c4cc(C)ccc4C)nc23)cc1,·,·,100,-23
CCCCNC(=O)Cn1c(=O)n(CCCCC(=O)NC(C)C)c(=O)c2ccccc21,·,·,100,-21
O=c1ssc(=NCc2ccccc2)n1Cc1ccccc1,121,55,105,-34
CCc1ccc(NS(=O)(=O)c2ccc(C(=O)N(C)C)s2)cc1,94,99,103,·
COc1ccc(Cl)cc1NC(=O)CCCn1c(=O)c2cccn2c2cccnc21,99,82,98,·
FC(F)(F)c1ccc(-c2nnc(SCc3ccncc3)n2Cc2ccco2)cc1,95,81,109,-20
# Other entries:
SMILES,Sa growth 42C,Sa growth 42C second temp,GIV Gai3 FP,HCMV UL50-53 inh
COc1ccc(NC(=O)CCn2cccn2)cc1OC,93,83,97,·
CSc1cccc(NC(=O)CSc2nc(C)cs2)c1,114,85,·,0
NC(=O)c1sc2nc(-c3ccccc3)ccc2c1N,74,84,·,-27
COCCN(CCOC)S(=O)(=O)c1ccc(C(=O)Nc2nnc(-c3cccc([N+](=O)[O-])c3)s2)cc1,·,·,99,-54
CNC(=O)CN(c1cc(C)ccc1C)S(C)(=O)=O,95,95,99,-6
CCc1ccc(S(=O)(=O)c2cn(C)c3cc(N4CCC(C)CC4)c(F)cc3c2=O)cc1,127,89,111,·
NS(=O)(=O)c1ccc(CCNCc2ccc(-c3ccc(Br)cc3)o2)cc1,·,·,107,-22
CNC(=O)NC(=O)C(Sc1nnnn1C)c1ccccc1 (stereo not given),94,91,·,-8
CNC1CCCCN(C(=O)c2ccc(F)cc2)C1=O (stereo not given),94,89,·,-34
NS(=O)(=O)c1ccc(NC(=O)CCCN2C(=O)S/C(=C/C=C/c3ccccc3)C2=O)cc1,·,·,106,-4
Oc1c(C(c2ccc(Br)cc2)N2CCOCC2)sc2nc(-c3ccco3)nn12 (stereo not given),121,86,98,·
CC(C)CN(CC(C)C)C(=O)Cn1cnc2ccccc21,106,101,112,-12
COc1ccc(OC)c(NC(=O)CN2C(=O)COc3ccc(S(=O)(=O)NC4CCCC4)cc32)c1,93,87,104,·
Cc1cc(C)cc(NC(=O)COc2ccccc2C)c1,83,97,·,-13
O=C(Oc1ccccc1)c1ccc2c(c1)CCO2,101,96,107,-2
CC1(C)CC(=O)c2cc(-c3nc(-c4ccccc4)cs3)c(=O)[nH]c2C1,84,87,102,-6
CC(=O)c1c(C)oc2c(Br)cc(NS(=O)(=O)c3ccc(Br)cc3)cc12,126,95,106,·
O=C1c2ccccc2C(=O)N1CSc1nc2nn(-c3ccccc3)c(=O)c-2c2n1CCCCC2,82,85,·,-32
CCOc1cc(S(=O)(=O)NCCc2c(C)[nH]c3ccc(C)cc23)ccc1Br,111,99,106,14
O=C(COc1ccccc1)Nc1ccc(-c2cn3cccnc3n2)cc1,84,81,92,-9
CC(=O)N1CC2(C)CN(C(C)=O)CC(c3ccccc3)(C1)C2O (stereo not given),99,101,103,-16
CC(C)(Oc1ccc(Cl)cc1)C(=O)N1CCC2(CC1)NC(=O)c1ccccc1O2,100,89,104,-17
Clc1ccc(OCOc2ccc(Cl)cc2)cc1,80,87,101,-17
CCOC(=O)C1CCN(Cc2cccc(NC(=O)c3cc(C)on3)c2)CC1,98,89,105,-34
O=C1CN(C(=O)CC2CCCCC2)C(c2ccccc2)c2cc(Br)ccc2N1 (stereo not given),64,84,100,·

# Entries of single compounds, quoted from the list:
# `CCCCN(C)C(=O)C1CCC(Cn2c(=O)c3sccc3n(CC(=O)N(CC)CC)c2=O)CC1` (stereo not given) as listed: Sa growth 42C: ·; Sa growth 42C second temp: ·; GIV Gai3 FP: 107; HCMV UL50-53 inh: -1
# `Cc1cccc(NC(=O)C2CCN(S(=O)(=O)c3c(C)noc3/C=C/c3ccco3)CC2)c1C` as listed: Sa growth 42C: 108; Sa growth 42C second temp: 93; GIV Gai3 FP: 105; HCMV UL50-53 inh: -28

# (more compounds)
SMILES,Sa growth 42C,Sa growth 42C second temp,GIV Gai3 FP,HCMV UL50-53 inh
CCC(Cc1ccccc1)NC(=O)Cn1nc(C)n2c(cc3occc32)c1=O (stereo not given),107,89,102,-16
CCCC1COC(Cn2cncn2)(c2ccc(C)cc2)O1 (stereo not given),94,95,105,-10
C=Cc1ccc(CN(c2nc3nc(C)c(Cl)c(C)n3n2)S(=O)(=O)c2ccccc2)cc1,·,·,101,-12
Nc1cc(C(=O)OCCOc2ccc(Br)cc2)ccc1Cl,87,87,·,-9
CCCn1c(=O)oc2cc(NC(=O)Nc3cccc(C)c3)ccc21,·,·,102,1
Cc1cc2n(n1)CCCN2C(=O)CCC(=O)NCCc1ccc(Cl)cc1,·,·,109,2
CN(C)CCN=CC1=C(O)CC(C)(C)CC1=O,98,90,102,0
Cc1cc(SCC(=O)N(C)C)n2c(nc3ccccc32)c1C#N,106,94,·,-2
CCCCn1c(CN2CCC(C)CC2)nc2cc(NC(C)=O)ccc21,·,·,99,10
COc1ccc(N(CC(=O)N2CCN(c3ccc(F)cc3)CC2)S(=O)(=O)c2c(C)noc2C)cc1,97,82,108,-6

# 5 successive compounds from above, quoted:
SMILES,Sa growth 42C,Sa growth 42C second temp,GIV Gai3 FP,HCMV UL50-53 inh
CCC(Cc1ccccc1)NC(=O)Cn1nc(C)n2c(cc3occc32)c1=O (stereo not given),107,89,102,-16
CCCC1COC(Cn2cncn2)(c2ccc(C)cc2)O1 (stereo not given),94,95,105,-10
C=Cc1ccc(CN(c2nc3nc(C)c(Cl)c(C)n3n2)S(=O)(=O)c2ccccc2)cc1,·,·,101,-12
Nc1cc(C(=O)OCCOc2ccc(Br)cc2)ccc1Cl,87,87,·,-9
CCCn1c(=O)oc2cc(NC(=O)Nc3cccc(C)c3)ccc21,·,·,102,1
